Screening data (PubChem BioAssay)
TRPV1 PAM: HTS Assay for Compounds that Act as Potentiators of the Vanilloid Receptor 1. TRPV1-expressing cells, Fluo-8 calcium influx, capsaicin EC20 potentiation; host cell line not named in the record; control for the full effect not named in the record. AID 540277, 2011. potentiation, % at 8.33 µM. 320,000 tested, 0.02% active. Transient receptor potential cation channel subfamily V member 1 (Homo sapiens), Q8NER1; active means potentiation above 80%; inconclusive means 30% to 80%; inactive means below 30%; also: 0% is about no effect
Target sequence (Q8NER1 whole entry, looked up): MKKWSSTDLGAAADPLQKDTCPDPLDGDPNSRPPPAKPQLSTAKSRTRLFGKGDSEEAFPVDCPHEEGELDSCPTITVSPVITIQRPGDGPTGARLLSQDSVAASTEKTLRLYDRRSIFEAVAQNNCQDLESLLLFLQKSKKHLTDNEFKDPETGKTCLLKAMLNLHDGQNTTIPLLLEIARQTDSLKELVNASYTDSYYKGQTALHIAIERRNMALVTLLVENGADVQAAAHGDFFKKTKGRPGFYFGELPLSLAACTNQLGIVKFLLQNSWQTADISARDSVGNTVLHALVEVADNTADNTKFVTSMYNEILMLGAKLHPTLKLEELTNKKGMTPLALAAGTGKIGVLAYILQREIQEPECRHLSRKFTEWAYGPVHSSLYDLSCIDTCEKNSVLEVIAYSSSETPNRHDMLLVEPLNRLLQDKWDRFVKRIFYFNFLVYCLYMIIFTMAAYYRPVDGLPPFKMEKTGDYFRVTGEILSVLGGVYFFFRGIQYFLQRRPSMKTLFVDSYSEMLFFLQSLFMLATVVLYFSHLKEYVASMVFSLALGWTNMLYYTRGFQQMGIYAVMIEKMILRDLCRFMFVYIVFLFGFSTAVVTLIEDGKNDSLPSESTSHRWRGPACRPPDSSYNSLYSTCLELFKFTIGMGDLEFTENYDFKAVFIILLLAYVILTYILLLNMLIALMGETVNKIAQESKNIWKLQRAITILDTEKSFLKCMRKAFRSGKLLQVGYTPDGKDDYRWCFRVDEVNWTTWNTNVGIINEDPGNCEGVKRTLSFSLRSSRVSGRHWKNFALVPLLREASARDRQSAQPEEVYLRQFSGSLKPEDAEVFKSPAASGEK
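Fluo-8 calcium influx in TRPV1-expressing cells, kinetic read (ex 480/em 520 nm). Compound added and read 3 min for agonist activity, followed by capsaicin at EC20 final and 2 min further read for enhancement.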
gsp agonist: qHTS for Agonist of gsp, the Etiologic Mutation Responsible for Fibrous Dysplasia/McCune-Albright Syndrome: qHTS | gsp mutant cells, cAMP HTRF, 30 min; control for the full effect not named in the record | Potency, µM (titrated, usually from 76.9 µM), for the others: at the highest dose activation (cAMP increase), usual class: activators | 340,000 tested, 0.13% active; active = well fitted activation curve with a large enough effect; inconclusive = small, poorly fitted or top-dose-only effect, or another doubt; inactive = no such curve, though single readings can be large or run the other way; cell line not stated here;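 also: phosphodiesterase inhibitor Ro 20-1724 added with compounds to block cAMP breakdown; potency is read from the fitted curve at half-maximal effect; nearly all actives have a fitted effect of over 60% in size; about a fifth of the inactives were tested at one dose only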
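Cells stably selected in G418 were plated at 2000/well, grown 16-24 hr, then given compounds in DMSO with the PDE inhibitor […] (300 uM solution added) for 30 min at 37C; cAMP was read by HTRF.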
Sfp inh: qHTS Assay for Inhibitors of Bacillus subtilis Sfp phosphopantetheinyl transferase (PPTase) | 4'-phosphopantetheinyl transferase ffp (Bacillus subtilis), Q9F4F7 | Potency, µM, inactives show max response, negative = inhibition, hits mostly inhibitors | 310,000 tested, 3.5% active | Biochemical Sfp PPTase activity, qHTS; active = well fitted inhibition curve with a large enough effect; inconclusive = small, poorly fitted or top-dose-only effect, or another doubt; inactive = no such curve, though single readings can be large or run the other way;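 also: the enzyme is Sfp with the accession as filed and its product quenches rhodamine fluorescence; potency is read from the fitted curve at half-maximal effect; 0% = enzyme reaction without inhibitor and -100% = no enzyme wells; top concentration of the series not given in the record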
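With Hepes-Na pH 7.6 buffer containing 10 mM MgCl2, Sfp (15 nM) modified BHQ-2-YbbR (12.5 uM) using rhodamine-CoA (5 uM). Two reads 30 minutes apart at 525/598 nm yielded each well's rate.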
ClpP mod: qHTS Assay for Activators of ClpP; ATP-dependent Clp protease proteolytic subunit (Bacillus subtilis (strain 168)), P80244; purified B. subtilis ClpP, FRET peptide cleavage, 20 min; Potency, µM (highest dose often 57.5 µM), for inactives: top-dose activity change, negative = active; 340,000 tested, 1.9% active; AID 651965, 2013; active = well fitted falling curve with a large enough effect; inconclusive = small, poorly fitted or top-dose-only effect; inactive = no such curve, though single readings can be large or run the other way; also: potency is read from the fitted curve at half-maximal effect; the source files actives as falling curves though it sought activators and does not explain the sign; nearly all actives have a fitted effect of over 65% in size; many hits overshoot -100%
Target sequence (P80244 whole entry, looked up): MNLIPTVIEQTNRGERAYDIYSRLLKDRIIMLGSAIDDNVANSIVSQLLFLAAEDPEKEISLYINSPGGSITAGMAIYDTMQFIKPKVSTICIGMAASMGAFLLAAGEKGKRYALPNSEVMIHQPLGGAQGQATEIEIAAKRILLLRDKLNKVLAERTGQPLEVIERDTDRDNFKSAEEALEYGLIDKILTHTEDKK
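FRET quenching reversal measured ClpP activation: 10 microg/mL B. subtilis ClpP at pH 8 with the FRET-FV decapeptide, read at 430 nm after 320 nm excitation. The 20-min minus 0-min signal was scaled between DMSO/no-enzyme wells and ADEP (5.8 microM final).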
gsp antag: qHTS for Antagonists of gsp, the Etiologic Mutation Responsible for Fibrous Dysplasia/McCune-Albright Syndrome: qHTS; 340,000 tested, 0.4% active; gsp-mutant cells, cAMP HTRF, 30 min; control for the full effect not named in the record; Potency, µM (top dose mostly 76.9 µM), without a hit: at the highest dose activity change, negative = inhibition, usual class: inhibitors; active = falling curve of any shape with a large fitted effect; inconclusive = falling curve, mostly with a smaller effect; inactive = flat or rising curve; cell line not stated here;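 also: intracellular cAMP measured with PDE inhibitor Ro 20-1724 present during compound exposure; potency is read from the fitted curve at half-maximal effect; % is scaled to controls: 0 for no effect and ±100 for the full control effect; nearly all actives have a fitted effect of over 65% in size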
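Cells in G418 medium, seeded 16-24 h, 37C; buffer exchange to DPBS + 1 mM CaCl2, 0.5 mM MgCl2, 0.05% BSA; cpds in DMSO + […] (300 uM stock), 30 min 37C; HTRF cAMP detection.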
CtBP-E1A blk: qHTS Assay for Inhibitors of the CtBP/E1A Interaction; CtBP / adenovirus E1A interaction (AlphaScreen); AlphaScreen GST-E1A/His-CtBP binding, 1536-well; stronger effect = lower value; control for the full effect not named in the record; activity change, % (no concentration beside the values); 340,000 tested, 0.49% active; AID 651724, 2012; in the data active means activity change below about -65%; inconclusive means about -30% to -65%; inactive means above about -30%; also: % is scaled to controls: 0 for no effect and ±100 for the full control effect; compound concentration not given in the record
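Protein mix (5X: 125 nM each GST-E1A, His-CtBP) was incubated with pinned compound 2 h at 37 deg C in dark, in 50 mM Tris pH 8.0 buffer with 300 mM NaCl. Glutathione donor and nickel acceptor beads followed; AlphaScreen signal read after 1 h.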
Menin MLL FP FL: qHTS Assay for Inhibitors Targeting the Menin-MLL Interaction in MLL Related Leukemias: Competition With Fluorescein Labeled MLL-derived Peptide; Fluorescence polarization, fluorescein-MLL peptide displacement from menin; FP activity change, % at 61.4 µM; 290,000 tested, under 10 active; inconclusive = falling polarisation curve, or a change in total fluorescence; inactive = total fluorescence flat and polarisation flat or rising; no compound was filed as active; the % refers to the polarisation; negative = inhibition;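 also: % of control where 0% means no effect; inhibitors lower the polarisation; unlabelled MLL peptide was the positive control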
Starred values were filed as active, the others as inactive; ? = inconclusive; · = no result given; & = joins results of further samples; [ ] = another dose, or the depositor's remark.

SMILES	TRPV1 PAM	gsp agonist	Sfp inh	ClpP mod	gsp antag	CtBP-E1A blk	Menin MLL FP FL
COc1ccccc1C(=O)NCC(=O)NC1CCCc2ccccc21 (stereo not given)	11	2%[15.4 µM]	-10%	-9.2%	2%	4	-0.2
CCOC(=O)C1CCCN(CCC(=O)Nc2cccc(C)c2)C1 (stereo not given)	4	-29%	6%	-0.8%	6%	?	-5.5
COc1ccccc1C(=O)N=Nc1c(O)[nH]c2ccc([N+](=O)[O-])cc12	-16	0%	-17%	-0.4%	-8%	·	3.1
C=CCn1c(SCC(=O)c2ccccc2)nnc1-c1cc2ccccc2o1	-6	10%	-23%	-7.6%	1%[15.4 µM]	0	3.6
CC1CCN(C(=O)c2ccc(NS(=O)(=O)c3ccccc3)cc2)CC1	3	-10%	10%	1.2%	-14%	0	-4.4
C[C@@H]1CC[C@]2(O[C@H](CCO)C[C@@H](O)[C@@H]2O)O1	·	-2%	·	-0.4%	13%	·	·
CCOC(=O)CSc1nc(C)c2cc(C)c(C)cc2n1	2	17%[15.4 µM]	-11%	·	·	-7	-0.8
Nc1sc2c(c1C(=O)c1ccccc1)CCCC2	25	-4%	50µM*	-2.0%	-9%	1	5.5
OCC1(CO)COC2(CCCC2)N1	-10&1	0%	2%&-1%	-0.7%	-3%	7	-0.2&-0.9
O=C(NCCNc1ccc([N+](=O)[O-])cc1)c1cccc(Br)c1	2	0%[15.4 µM]	?	0.4%	1%	6	3.5
O=C(Oc1c(Cl)cc(Cl)c2ccccc12)N1CCCC1	18	6%	-4%	-1.0%	-17%	5	1.6
CCCc1nc2c(=O)n(C)c(=O)[nH]c2n1CCC	2	6%	-5%	-16%	0%	-3	2.6
O=C(NCCc1cccc(F)c1)[C@@H]1CSC2c3ccccc3C(=O)N21 (stereo not given in full)	7	-4%	-6%	-3.7%	-3%	1	-0.2
O=C(Nc1nccs1)C1C2/C=C\CCCCC21 (stereo not given)	?	-38%[inhibitor]	9%	-2.9%	-3%	-5	-0.1
CCC(=O)Nc1ccc2c(c1)ncn2-c1ccc(OC)cc1	-4	-42%[inhibitor]	-20%	-4.0%	-12%	0	3.3
O=C(NCc1cccs1)c1cnn2cccnc12	5	?	18%	2.3%	0%	6	4.3
Cc1cccc(/C=N/NC(=O)Cn2nnnc2N)n1	4	6%[15.4 µM]	?	0.6%	3%	-19	-2.6
COc1ccc(C(=O)Nn2c(C)nnc2-n2nc(C)cc2C)cc1OC	9	0%	13%	0.1%	7%	6	0.2
O=C(Nc1ccc(S(=O)(=O)N2CCCCC2)cc1)C1CCCO1 (stereo not given)	2	-21%	2%	·	18%	-3	0.4
Cc1oc(C)c(C(=O)O)c1C(=O)O	3	-50%[inhibitor]	3%	-1.3%	10%	4	0.0
CS(=O)(=O)N(CC(=O)N1CCCCC1)C1CCCCC1	·	9%	21%	0.5%	2%	3	1.9
COc1ccc(/C=N/NC(=O)c2ccc(OC)c(OC)c2)cc1COc1c(F)c(F)c(F)c(F)c1F	2	20%	8%	-16%	-14%	0	·
CSc1nc(SCC(=O)O)c2sc3nc(-c4ccccc4)c4c(c3c2n1)CCC4	?	?	-16%	-15%	7%	·	6.9
O=S(=O)(NN1CCOCC1)c1ccc(Cl)s1	12	-10%[15.4 µM]	-15%	·	5%	1	-4.7
CCC1([N+](=O)[O-])COC(C=Cc2ccccc2)OC1 (stereo not given)	·	?	·	·	1%	11	·
O=C(CN1C(=O)C2CCCCC2C1=O)Nc1cc([N+](=O)[O-])ccc1F (stereo not given)	0	-7%	·	1.8%	2%	3	·
O=C(CCCSc1nc2ccccc2c(=O)[nH]1)c1ccccc1	16	3%	7%	0.0%	-1%	1	-0.1
Cc1ccc2nc(SCC(=O)N/N=C/c3ccco3)cc(C)c2c1	11	34%[15.4 µM]	3%	·	-9%	1	9.2
O=C(NNC(=O)C1C2C=CC(C2)C1C(=O)O)c1cc(Cl)ccc1O (stereo not given)	16	?	?	3.8%	2%	-24	·
CCCOc1ccc(NC(=O)CC2C(=O)Nc3ccccc3N2CC(=O)N2CCCC2)cc1 (stereo not given)	11	-112%[inhibitor]	·	-15%	-10%	-21	·
COc1cccc(N2CCN(S(=O)(=O)c3ccc4c(c3)oc(=O)n4C)CC2)c1	22	?	9%	1.7%	12%	7	6.3
O=C(CN1CCN(c2cccc(Cl)n2)CC1)N1CC(O)CO1 (stereo not given)	-10	-2%[15.4 µM]	17%	·	10%	-25	0.0
O=C(NCCc1csc(-c2ccccc2)n1)c1c(F)cccc1Cl	?	9%[15.4 µM]	13%	·	-11%	14	-0.5
Cc1nc(SC2CC(=O)N(c3ccccc3)C2=O)n[nH]1 (stereo not given)	7	-2%[15.4 µM]	16µM*	·	-7%	3	5.5
OC1(c2cccc(C(F)(F)F)c2)CCN(Cc2nnnn2CCc2ccccc2)CC1	-2	17%	9%	1.8%	-8%	-3	0.2
Cc1cc(C)cc(N(CC(=O)O)S(=O)(=O)c2c(C)[nH]c(=O)[nH]c2=O)c1	6	-12%[15.4 µM]	9%	·	16%	-15	-6.7
O=C(NC1CCCCC1)C1CCCN(c2nnnn2-c2ccccc2)C1 (stereo not given)	-26	21%	10%	-3.5%	5%	7	5.8
CCn1c(COc2ccc(Cl)c(C)c2)nnc1SCC(=O)N1CCCC1	-17	-13%	0%	0.1%	-9%	0	2.2
S=C1NCCOCCOCCOCCNC(=S)N2CCOCCOCCN1CCOCCOCC2	-4	18%	-23%	·	0%	1	0.8
Cc1cc(C(=O)c2ccc(C(C)(C)C)cc2)c(NC(=O)CCl)s1	-7	-4%	-5%	-3.4%	?	-5	3.8
CCCN1CCC(NC(=O)Cc2cccc(C)c2)CC1	-3	-3%	31%[activator]	·	8%	-17	0.7
Cc1ccc(-c2nnc(N3CCN(CCO)CC3)c3ccccc23)cc1	-1	-10%[15.4 µM]	-7%	-2.2%	2%	0	5.9
COc1ccc(C/C(C)=N/NC(=O)c2ccc(Cl)cc2)cc1	-12	-18%[15.4 µM]	-22%	·	4%	9	1.8
CCOC(=O)N1CCN(C(=S)NC(=O)c2nn(C)cc2Br)CC1	-3	19%	?	·	5%	5	0.4
N=C1c2c(cc(=O)n3c2[nH]c2ccccc23)CN1CCN1CCOCC1	?	1%[15.4 µM]	3%	·	-28%	?	?
Cc1noc(NS(=O)(=O)c2ccc(NC(=O)/C=C/c3ccc(Br)cc3)cc2)c1C	27	-1%[15.4 µM]	1%	-0.6%	-19%	-16	·
CC(=O)c1cccc(NC(=O)C(C)OC(=O)c2cc(=O)[nH]c3ccccc23)c1 (stereo not given)	9	13%[15.4 µM]	·	-28%	5%	-3	·
O=C(OCCc1ccccc1)c1cc(O)c(O)c(O)c1	-8	·	·	-2.0%	3%	3	·
O=C(NCCc1ccccc1)C1CCN(S(=O)(=O)c2ccc(-n3cnnn3)cc2)CC1	-12	?	-1%	-0.7%	-3%	4	-4.5
Fc1c(F)c(F)c(NC2=NCCCCC2)c(F)c1F	-17	-3%[15.4 µM]	9%	·	13%	-3	-0.2
(continued)
SMILES	TRPV1 PAM	gsp agonist	Sfp inh	ClpP mod	gsp antag	CtBP-E1A blk	Menin MLL FP FL
COc1ccc(C(=O)/C=C2/c3ccccc3CC(C)(C)N2C)cc1OC	-1	3%	?	-15%	1%	-8	0.3
Cc1cc(C)nc(NC(=O)NS(=O)(=O)Nc2ccc(Br)cn2)n1	-9	-13%[15.4 µM]	5%	-0.2%	9%	6	0.4
CNc1nnc(-c2ccco2)s1	14	2%	6%	-16%	9%	·	0.2
Cc1ccc(NS(=O)(=O)c2ccc(-n3cccn3)cc2)c(Cl)c1	·	-36%	·	1.4%	·	3	·
Cc1ccc(C2=NC(C)(C)NC2=O)cc1	-7	-34%	13%	-2.5%	12%	3	-0.3
COc1ccc(-c2nc3c(C(=O)NCCN(C)C)cccc3c3ccccc23)cc1	·	17%	·	?	7%	11	·
Cc1cc(NC(=O)CSc2nnnn2-c2ccccc2)no1	3	-1%[15.4 µM]	3%	·	-6%	14	-2.2
COc1ccc(NC(=O)c2ccc3ccccc3c2)cc1	-14	-34%[inhibitor]	-2%	2.3%	6%	·	-4.6
O=C(CSCc1ccc(F)cc1)NCc1cccs1	-30	-8%[15.4 µM]	14%	-0.4%	5%	0	-8.7
CCOC(=O)c1sc(Nc2nc3c(OC)cccc3s2)cc1C	9	5%	?	25µM*	-3%	-4	11
COc1cc(CN(C(=O)c2ccco2)C2CCS(=O)(=O)C2)cc(OC)c1OC (stereo not given)	-7	?	5%	1.8%	6%	3	0.4
CCCC(=O)c1c(NC(C)C)cc(C)oc1=O	-14	-3%	-1%	-2.7%	9%	-8	0.7
O=C(NC1CCCCC1)C(c1cccnc1)N(C(=O)c1csnn1)c1ccc(F)cc1 (stereo not given)	0	13%[15.4 µM]	-6%	-1.4%	7%	8	-2.2
N#C/C(=C/c1ccncc1)c1nc2ccccc2s1	14	?	-13%	-2.6%	22%	5	?
COc1ccc(S(=O)(=O)N(Cc2ccc(OC)c(OC)c2)Cc2ccco2)cc1	27	-7%	17%	-2.6%	-19%[15.4 µM]	1	2.6
COc1ccc(-c2sc3ccccc3c2C#Cc2cncn2C)cc1	·	10%	·	4.2%	-26%	·	·
